POLK inh: blocks human DNA polymerase kappa activity; AID 588579; Potency, µM (series often up to 107 µM), inactives show at the top dose activity, negative = inhibition, actives largely listed as inhibitors; 0.53% of 400,000 active; Q9UBT6; purified Pol kappa, fluorescent DNA synthesis assay, 10 min; also: potency is read from the fitted curve at half-maximal effect; % is scaled to controls: 0 for no effect and ±100 for the full control effect
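10 nM Pol kappa preincubated 15 min at room temperature with compounds, then reaction started with substrate at 50 nM final. Fluorescence read kinetically at 0 and 10 min; buffer-only wells served as negative control.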
RXFP1 antagonist: blocks the human relaxin receptor RXFP1. activity change, negative = inhibition, % at 57.5 µM. 0.59% of 350,000 active. HEK293-RXFP1, relaxin-stimulated cAMP HTRF, 30 min; hits give low values. Q9HBX9;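 active = activity change of -60% or lower, but not beyond a set lower limit; inconclusive = change between -60% and -40%, or beyond the set limit; inactive = change above -40%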; also: % is scaled to controls: 0 for no effect and ±100 for the full control effect
Target sequence (Q9HBX9 whole entry, looked up): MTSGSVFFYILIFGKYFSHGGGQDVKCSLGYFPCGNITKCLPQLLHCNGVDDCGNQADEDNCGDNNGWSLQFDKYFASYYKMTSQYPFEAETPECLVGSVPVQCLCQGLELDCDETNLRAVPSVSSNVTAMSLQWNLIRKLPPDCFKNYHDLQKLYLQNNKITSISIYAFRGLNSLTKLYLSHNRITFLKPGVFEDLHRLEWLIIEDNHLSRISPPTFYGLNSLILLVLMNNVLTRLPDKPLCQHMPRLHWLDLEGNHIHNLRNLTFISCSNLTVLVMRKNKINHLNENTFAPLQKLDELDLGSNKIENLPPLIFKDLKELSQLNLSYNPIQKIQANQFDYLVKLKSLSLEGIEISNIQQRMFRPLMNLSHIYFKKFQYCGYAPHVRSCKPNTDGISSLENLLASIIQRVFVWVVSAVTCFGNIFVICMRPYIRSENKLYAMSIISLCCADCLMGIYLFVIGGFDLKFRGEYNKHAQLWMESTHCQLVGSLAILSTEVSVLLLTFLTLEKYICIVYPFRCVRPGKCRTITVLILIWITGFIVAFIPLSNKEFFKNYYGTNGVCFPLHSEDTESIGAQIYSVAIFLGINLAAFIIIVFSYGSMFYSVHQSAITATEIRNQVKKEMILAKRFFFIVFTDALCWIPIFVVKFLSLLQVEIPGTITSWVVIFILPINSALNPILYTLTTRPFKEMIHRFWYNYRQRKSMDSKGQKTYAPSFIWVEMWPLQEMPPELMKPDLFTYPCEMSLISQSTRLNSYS
APE1 inh: inhibitors of human APE1 endonuclease. recombinant APE1, TAMRA/BHQ-2 abasic DNA cleavage fluorescence. Potency, µM (titrated, usually from 65.8 µM), for inactives: at the top dose activity change, negative = inhibition, usual class: inhibitors. 0.35% of 350,000 active;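 also: potency is read from the fitted curve at half-maximal effect; plate controls were vehicle for no effect and reference inhibitor for full effect; nearly all actives have a fitted effect of over 55% in size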
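Readout is kinetic fluorescence (ex 525, em 598 nm) from cleavage of 50 nM TAMRA/BHQ-2 THF abasic duplex by 0.75 nM APE1, compound added 15 min beforehand at RT.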
Tb PGK inh: T. brucei PGK inhibition | P07378 | PGK/GAPDH coupled, Kinase-Glo luminescence, 60 min | Potency, µM (series often up to 57.5 µM), for the others: at the highest dose activity change, negative = inhibition, hits mostly inhibitors | 0.043% of 380,000 active | AID 602233; also: potency is read from the fitted curve at half-maximal effect; % is scaled to controls: 0 for no effect and ±100 for the full control effect; nearly all actives have a fitted effect of over 60% in size
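Recombinant glycosomal PGK reaction used 1,3-bisphosphoglycerate generated in-well by GAPDH (100nM final) in 100mM TEA pH 7.6, 5mM MgCl2, 0.01% Tween-20. After 60 minutes at room temperature, ATP was read by Kinase-Glo Plus luminescence end-point.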
POLI inh: DNA polymerase iota (human) inhibition | Q9UNA4 | Potency, µM (highest dose often 115 µM), inactives show at the highest dose activity, negative = inhibition, most hits filed as inhibitors | 1% of 390,000 active | Pol iota fluorescent replication assay, 10 min | AID 588590; also: potency is read from the fitted curve at half-maximal effect
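Fluorescent replication assay read twice, at 0 min and 10 min after adding 50 nM (final) substrate. Enzyme (10 nM) and compounds were first incubated 15 min at room temperature; enzyme-free buffer wells were negative controls.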
Numbers without * were called inactive; ? = inconclusive; nt = no result given; & = joins results of further samples; [ ] = dose if it differs, or a comment. Unless noted, calls follow the shape of the dose curve; as a rule, active = well fitted curve in the direction sought with a large enough effect; inconclusive = small, poorly fitted or top-dose-only effect, or another doubt; inactive = no such curve, though single readings can be large; an effect the other way counts as inactive or inconclusive.

nr	smiles	POLK inh	RXFP1 antagonist	APE1 inh
1	Nc1ccc(OCCc2ccccc2)cc1	5%	-6	-19%
2	O=C(O)C[C@@H](O)C(=O)O	-5%	nt	2%
3	Nc1nc(N)c2nc(-c3ccccc3)c(N)nc2n1	0%[60.1 µM]	14	?
4	O=c1[nH]cnc2c1ncn2[C@H]1CC[C@@H](CO)O1	10%	24	-5%&5%&-4%
5	COc1cccc2sc(Nc3nc4ccc(NC(C)=O)cc4s3)nc12	45µM*	2	?
6	COc1ccc([C@@H]2Sc3ccccc3N(CCN(C)C)C(=O)[C@@H]2OC(C)=O)cc1	-27%[60.1 µM]	6	7%&4%&-5%&2%&6%
7	CO[C@@]12[C@H](COC(N)=O)C3=C(C(=O)C(C)=C(N)C3=O)N1C[C@@H]1N[C@@H]12	-12%	-11	?
8	NCCC[C@@H](N)C(=O)O	-1%[19.4 µM]	nt	2%
9	CN1C2CC(OC(=O)C(CO)c3ccccc3)CC1C1OC12 (centres undefined)	-1%&15%&4%	2&-15	7%&-3%&-6%&-4%
10	NCCS(=O)(=O)O	?	-11	?
11	N[C@H](CC(=O)O)C(=O)O	-2%[19.4 µM]	nt	-1%&0%&13%
12	CC1(C)O[C@@H]2CC3C4C[C@H](F)C5=CC(=O)C=CC5(C)C4C(O)CC3(C)[C@]2(C(=O)CO)O1 (some centres undefined)	-7%	nt	36%
13	CC1CC2C3CCC4=CC(=O)C=C[C@@]4(C)[C@]3(F)C(O)C[C@]2(C)[C@]1(O)C(=O)CO (some centres undefined)	-10%&-1%[60.1 µM]	nt	7%&0%
14	CC[C@@H](C)[C@H]1O[C@]2(CC[C@@H]1C)C[C@@H]1C[C@H](C/C=C(/C)[C@H](O[C@@H]3C[C@H](OC)[C@H](O[C@@H]4C[C@H](OC)[C@@H](O)[C@H](C)O4)[C@H](C)O3)[C@@H](C)/C=C\C=C3CO[C@@H]4[C@H](O)C(C)=C[C@@H](C(=O)O1)[C@]34O)O2 (tested in a mixture with another compound)	?	nt	-8%
15	CO[C@@]12[C@@H]3N[C@@H]3CN1C1=C(C(=O)C(N)=C(C)C1=O)[C@@H]2COC(N)=O	?	-9	nt

nr	Tb PGK inh	POLI inh
1	2%	67%[activator]
2	-2%	4%
3	-10%	8%
4	-9%	-17%&7%
5	-1%	16µM*
6	7%	-11%
7	-5%	?
8	nt	nt
9	-6%&-9%&-1%	-3%
10	-6%	-6%[58.9 µM]
11	nt	nt
12	-5%	-3%
13	nt	nt
14	nt	nt
15	-6%	-28%

Exported with values ahead of the structure: entries from further up
No. | POLK inh | RXFP1 antagonist | APE1 inh | Tb PGK inh | POLI inh | compound
5 | 45µM* | 2 | ? | -1% | 16µM* | COc1cccc2sc(Nc3nc4ccc(NC(C)=O)cc4s3)nc12
2 | -5% | nt | 2% | -2% | 4% | O=C(O)C[C@@H](O)C(=O)O
15 | ? | -9 | nt | -6% | -28% | CO[C@@]12[C@@H]3N[C@@H]3CN1C1=C(C(=O)C(N)=C(C)C1=O)[C@@H]2COC(N)=O
11 | -2%[19.4 µM] | nt | -1%&0%&13% | nt | nt | N[C@H](CC(=O)O)C(=O)O
8 | -1%[19.4 µM] | nt | 2% | nt | nt | NCCC[C@@H](N)C(=O)O
1 | 5% | -6 | -19% | 2% | 67%[activator] | Nc1ccc(OCCc2ccccc2)cc1

The list is partial, so the mix of outcomes need not match the whole.
